Screens: PubChem BioAssay, several laboratories
Sa RN4220 lethal: kills Staphylococcus aureus RN4220 | actives 0.33% (n = 330,000) | inhibition, % (no concentration beside the values) | S. aureus RN4220 growth, OD600, 16 h;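 active means z-score of -3 or lower and OD600 up to 0.18 on both plates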;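 further: plate controls were untreated cells for no effect and reference antibiotic for full effect; stock transfer was 100 nL into about 80 µL; one replicate is shown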
PrP 5UTR inh: suppresses PrP 5' UTR mRNA reporter expression. cell-based PrP 5' UTR mRNA reporter, plate reader. inhibition, % (concentration not given with the values). actives 0.35% (n = 340,000);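 active means every replicate at 50% or more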;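 further: 0 = median of the neutral control wells; tested in H4 reporter cells; numbers are from one replicate; inactives centre near -14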
ugtP null kill: kills S. aureus RN4220 lacking UgtP | S. aureus RN4220 ugtP deletion, OD600 growth, 16 h; some inactives read as strong as hits | growth inhibition, % (test concentration not listed) | actives 0.54% (n = 330,000) | AID 1259309;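 active means z-score under -3 and OD600 up to 0.15 on both plates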;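 further: plate controls were untreated wells for no effect and antibiotic for full effect; wells of about 80 µL received 100 nL stock; the first replicate is given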
Mtb hypoxia inh: reduces hypoxia-regulated biosensor signal in M. tuberculosis; M. tuberculosis hypoxia-regulated fluorescent reporter, fluorescence; fluorescence inhibition, % (test concentration not listed); actives 0.1% (n = 300,000);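 active means 35 to 45% if threefold the growth effect, above 45% if 1.5-fold the growth effect; inactive means the rest, general growth blockers included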;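 further: wells of about 50 µL received 100 nL stock; 0% = vehicle wells and 100% = reference inhibitor wells; whole bacteria with a GFP reporter of the hypoxia response; strong numbers were not always called active; many hits fall short of the cut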
BJeLR lethal: BJeLR cell viability loss; BJeLR (HRASV12) viability, CellTiter-Glo ATP luminescence, 48 h; reference of the scale not given here; inhibition, % (concentration not given with the values); actives 0.17% (n = 300,000); AID 1554;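 active means replicate mean above 50%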;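 further: 50 nL library stock added to about 25 µL; numbers are from one replicate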
Autofluor counter: flagged as autofluorescent in microsphere protease counterscreen; compound autofluorescence counterscreen, microsphere flow cytometry; hits give high values; fluorescence intensity (test concentration not listed); actives 3.1% (n = 360,000);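 active means at least 3 SD above the mean of all compounds, about 16000 in these data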;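 further: 100 nL of 1 mM stock went into each well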
Mtb hypoxia inh growth: recorded beside Mtb hypoxia inh, whose call it bears; growth inhibition, %; measured here: M. tuberculosis growth (absorbance);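 0% = vehicle and 100% = reference antibiotic; read after six days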
Numbers without * were called inactive; x = no result given.

Abbreviations: A = Sa RN4220 lethal; B = PrP 5UTR inh; C = ugtP null kill; D = Mtb hypoxia inh; E = Mtb hypoxia inh growth; F = BJeLR lethal; G = Autofluor counter
> CCCc1cc(=O)[nH]c(SCc2nc3ccccc3o2)n1
  A: 7.3	B: -1	C: 2	D: 5	E: 7	F: -5	G: 3557

> CCOC(=O)N/N=C/c1cc(C)n(-c2cccc3ccccc23)c1C
  A: x	B: -51	C: x	D: x	E: x	F: -6	G: 2597

> Cc1cccc(NS(=O)(=O)c2ccc3c(c2)oc(=O)n3C)c1C
  A: 3.0	B: -37	C: -3	D: 6	E: -9	F: 10	G: x

> Nc1nnnn1CC(=O)NN=C/C=C/c1ccccc1
  A: 4.4	B: x	C: 4	D: 6	E: 11	F: x	G: x

> O=C(c1ccc(Cl)cc1)c1cc([N+](=O)[O-])ccc1N1CCOCC1
  A: -0.8	B: 27	C: 15	D: 8	E: 6	F: 41	G: 3860

> NNC(=O)c1cccc(COc2ccc3c(c2)CCC3)c1
  A: 6.4	B: 39	C: 1	D: x	E: x	F: -3	G: 1971

> CC1C(=NO)CC(c2ccccc2)NC1c1ccccc1 (centres undefined)
  A: -1.6	B: x	C: 16	D: 12	E: 1	F: x	G: x

> COc1cccc(C(=O)NN2CC(O)=C(c3nc4ccccc4s3)C2=N)c1
  A: 2.6	B: -11	C: -8	D: -8	E: 0	F: 2	G: 3315

> COc1ccc(C(=O)NC2CCN(C(=S)Nc3ccc(C)cc3)CC2)cc1
  A: 6.4	B: -12	C: 9	D: 3	E: -1	F: 17	G: 4494

> Cc1ccc(/C=C\c2nccc3c2[nH]c2ccccc23)cc1
  A: 85	B: -29	C: 39	D: -5	E: 5	F: 2	G: 4857

> Cc1cccc(OCc2nnc(SC(C)C(=O)O)n2-c2ccccc2)c1 (centres undefined)
  A: 4.2	B: -4	C: 13	D: 5	E: 8	F: -4	G: 3115

> COc1cccc(CN(CC2CCCO2)C(=O)c2cc3ccccc3oc2=O)c1 (centres undefined)
  A: 7.8	B: -19	C: 4	D: 1	E: 3	F: 3	G: 3277

> O=C(O)c1ccccc1C(=O)N1N=C2/C(=C/c3cccc([N+](=O)[O-])c3)CCCC2C1c1cccc([N+](=O)[O-])c1 (centres undefined)
  A: -4.5	B: -21	C: 6	D: -6	E: -3	F: -24	G: 5196

> CC(O)c1nc2cc([N+](=O)[O-])ccc2n1Cc1ccccc1 (centres undefined)
  A: 1.5	B: -31	C: 6	D: -2	E: 7	F: 0	G: 3758

> Fc1cccc(F)c1CN1CCN(c2ncccn2)CC1
  A: 0.5	B: -25	C: 4	D: -2	E: -11	F: -2	G: 11369

> COC(=O)c1ccc(NC(=O)c2ccc(NS(=O)(=O)c3cccc4cccnc34)cc2)cc1
  A: 1.0	B: -19	C: 2	D: -8	E: 6	F: 2	G: 3742

> O=C(NN=CC1C(=O)NC(=S)N(c2ccccc2)C1=O)c1cc(Br)c(O)c(Br)c1 (centres undefined)
  A: 7.1	B: x	C: 1	D: 3	E: 8	F: x	G: x

> Cc1ccc(N2C(=O)C3C(C2=O)C2C=CC3C23CC3)c([N+](=O)[O-])c1 (centres undefined)
  A: -2.0	B: -14	C: -8	D: -3	E: 11	F: 7	G: 2398

> COc1ccccc1-n1c(-c2ccoc2)nc2ccccc2c1=O
  A: 2.7	B: -19	C: 14	D: x	E: x	F: x	G: 2217

> COc1ccc(Cl)cc1NC(=O)CN1CCC(n2nnc3cc(F)ccc32)CC1
  A: -2.0	B: -9	C: -4	D: -85	E: -26	F: 3	G: 10688

> O=S(=O)(c1ccccc1Cl)N1CCCC(c2nc(-c3cccnc3)no2)C1 (centres undefined)
  A: 0.4	B: -5	C: -4	D: 0	E: -1	F: -1	G: 15523

> CCCc1nnc(SCC(=O)NC2CC2)n1CC
  A: x	B: -5	C: x	D: x	E: x	F: 1	G: 5838

> CCOC(=O)c1ccc(NC(=O)C(=O)NCc2ccc(/C=C(/C#N)C(=O)NCCOC)o2)cc1
  A: -3.0	B: 2	C: 1	D: -1	E: 21	F: -3	G: 3859

> CS(=O)(=O)N(CC(=O)N1CCN(c2ccccc2)CC1)c1cccc(Br)c1
  A: 1.6	B: -11	C: -2	D: 13	E: 24	F: -3	G: 4280

> Cc1c(NC(=O)C(C)OC(=O)/C=C/c2ccco2)c(=O)n(-c2ccccc2)n1C (centres undefined)
  A: 0.9	B: -26	C: 4	D: 11	E: 12	F: -18	G: 4502

> CCC(C)C(=O)NCCc1ccc(S(N)(=O)=O)cc1 (centres undefined)
  A: 4.0	B: -7	C: 1	D: 0	E: 15	F: -2	G: 2444

> COC(CNC(=O)C1CC(=O)N(CCc2ccc(C)cc2)C1)OC (centres undefined)
  A: 4.5	B: -17	C: 3	D: -9	E: 4	F: 2	G: 3077

> O=C(NCCCN1CCOCC1)C(=O)NCC1OCCCN1S(=O)(=O)c1cc(F)ccc1F (centres undefined)
  A: 0.4	B: 2	C: 1	D: 3	E: 13	F: 2	G: 6079

> Cc1cc(NS(=O)(=O)c2ccc(NC(=O)c3oc4ccccc4c3C)cc2)no1
  A: -1.6	B: -5	C: -28	D: 13	E: 21	F: 6	G: 22342*

> CC1(C)CC(=O)C(C2=NC3(CCCCC3)Cc3ccccc32)=C(O)C1
  A: 2.6	B: -44	C: 4	D: 16	E: 4	F: 10	G: 4088

Going on with the list.
Below each compound – Sa RN4220 lethal	PrP 5UTR inh	ugtP null kill	Mtb hypoxia inh	Mtb hypoxia inh growth	BJeLR lethal	Autofluor counter
COc1ccc(C2C(C(=O)c3ccco3)=C(O)C(=O)N2CCOCCO)cc1OC (centres undefined)
  3.7	-3	8	4	0	5	8130
Cn1c(SCC(=O)Nc2ccccc2)nc2ccccc2c1=O
  1.1	-20	-1	1	-3	10	3517
Cc1ccc(C2C(=C(O)c3ccc(Br)cc3)C(=O)C(=O)N2Cc2ccco2)o1 (centres undefined)
  10	x	-12	4	3	x	x
CCOC(=O)c1cc2nc(-c3ccco3)cc(C(F)(F)F)n2n1
  -13	-3	-9	20	15	-12	3375
O=C1c2ccccc2-c2n[nH]c3cccc1c23
  5.4	5	6	-1	-6	x	5500
COC(=O)C1CCN(C(=O)CSc2nc3ccc(OC)cc3[nH]2)CC1
  2.6	-20	1	13	3	-21	4335
CC(NC(=O)C(CC(=O)OC(C)(C)C)NC(=O)OC(C)(C)C)C(N)=O (centres undefined)
  0.2	-28	1	10	15	2	10273
CCCCCCc1cc2cc(C(=O)Nc3ccc(OC)cc3)c(=O)oc2cc1O
  7.9	-24	4	0	-8	15	3370
COc1ccccc1C(=O)Nc1ccc2c(c1)CN(Cc1cnc(C)s1)CC2
  -6.0	-2	-5	-1	5	3	5583
CSCCC1(C(=O)O)NC(c2ccccc2O)C2C(=O)N(C(C)C)C(=O)C21 (centres undefined)
  2.9	-4	10	x	x	-3	5353
O=C(c1sc2ccccc2c1Cl)N1CCN(CCc2ccccn2)CC1
  -3.2	-7	-7	-11	6	0	4168
CC(C)CN(C(=O)CSc1ncnc2ccccc12)C1CCS(=O)(=O)C1 (centres undefined)
  3.8	1	4	3	4	x	3736
CC(=O)Cc1cc(O)c2ccccc2c1OC(=O)c1ccc(Br)cc1
  16	-29	-17	-2	3	-6	4643
CC(C)Sc1nnc(NC(=O)c2ccc3c(c2)OCO3)s1
  4.4	-47	4	7	0	21	6726
Cc1ccc(C)n1-n1cnc2sc(-c3ccccc3)cc2c1=O
  0.1	-17	1	11	10	-5	12500
Cc1nc(N)nc(N)c1Oc1ccc(Cl)cc1
  11	-6	11	14	9	x	2801
O=C(NNS(=O)(=O)c1ccccc1)c1cc2cc3ccccc3nc2s1
  -3.1	-13	-1	4	11	10	3679
Cc1ccc(S(=O)(=O)Nc2ccc(C(=O)N3CCN(c4ccccc4O)CC3)cc2)cc1[N+](=O)[O-]
  9.8	-3	5	-5	2	14	3913
O=CC(Cl)P(=O)(N1CCCCC1)N1CCCCC1 (centres undefined)
  -2.0	-13	0	x	x	-11	2723
CC(C)N(Cc1ccccc1)S(=O)(=O)c1ccc2c(c1)NC(=O)CO2
  5.1	-10	-1	15	7	2	5651
CCc1ccc2[nH]c(=O)c(CN(Cc3ccccc3OC)C(=O)Nc3ccccc3OC)cc2c1
  -2.1	-27	-19	5	4	-20	16013
COc1ccc2nc(-c3ccccc3)nc(C3CCCCC3)c2c1
  -11	-13	16	0	-14	3	4068
Cc1ccc(/C=C2/SC(=S)N(c3ccc(S(=O)(=O)Nc4nccs4)cc3)C2=O)cc1
  8.0	83*	20	1	3	8	2972
OCCC1CN(CC#Cc2ccccc2)CCN1Cc1ccccc1F (centres undefined)
  -1.0	3	5	-5	-4	-2	3378
CC1CCCC(NC(=O)CSc2nnc(C(F)(F)F)n2C)C1C (centres undefined)
  6.8	-3	8	-1	-1	x	3967
COC(=O)c1ccc(Cn2cnc3cnccc32)cc1
  -0.5	-6	5	-8	-1	5	3069
Cc1ccc(C(C(=O)NCc2ccc(F)cc2)N(Cc2ccco2)C(=O)c2snc(C(N)=O)c2N)o1 (centres undefined)
  14	-27	6	5	8	-4	3773
O=C(O)CN1C(=O)/C(=C/c2ccsc2)SC1=S
  1.5	-21	4	0	1	-7	5085
C=Cn1c(C(=O)O)ccc1-c1ccc(CC)cc1
  -3.5	-38	55	16	14	3	5802
Cc1ccc([N+](=O)[O-])c(OCc2ncc(Cl)n2C)c1
  0.3	-19	7	6	0	-5	3550
Cc1cc(-n2c(C)cc(C(=O)COC(=O)CN=C3NS(=O)(=O)c4ccccc43)c2C)no1
  -2.3	-41	8	-5	-4	-4	3605
CCN1C(=O)NC(c2cccc(C(F)(F)F)c2)C(C(C)=O)=C1C (centres undefined)
  7.6	x	0	13	6	x	x
O=C(CCCOc1ccc(Cl)cc1)NCC1CCCO1 (centres undefined)
  4.7	-20	3	x	x	14	3653
COc1ccc2c(c1)C(=O)N(c1ccc(C)cc1C)C(=O)C2
  5.0	-18	7	17	14	1	2900
Cc1cc(C)c2c(n1)SCC(=O)N2CC(=O)Nc1ccc(F)cc1
  0.3	-11	-15	x	x	-13	5992
CN(CCNC(=O)C1CCN(S(=O)(=O)N2CCOCC2)CC1)CCc1ccccc1
  -9.2	-10	5	6	3	1	2579
CC1CC(C)CN(CCCOc2ccccc2[N+](=O)[O-])C1 (centres undefined)
  0.8	-33	-5	2	8	3	2502
CON=C(C)CCS(=O)(=O)c1ccccc1
  9.1	x	13	-4	-2	x	x
COC(=O)c1c(NC(=O)C2COc3ccccc3O2)sc2c1CCN(Cc1ccccc1)C2 (centres undefined)
  -5.5	2	-3	7	0	-5	2498
CCCNc1nc(Nc2ccc(C)cc2)nc(N2CCCC2)n1
  1.0	-6	37	-26	9	-4	16266*
COc1cc(NC(=O)COC(=O)CSc2cc(C)ccc2C)c(C)cc1[N+](=O)[O-]
  0.8	-12	7	3	6	0	2107
CCOCCCNC(=O)CN1C2CCC1CC(O)(c1ccc(OC)cc1)C2 (centres undefined)
  4.2	-15	8	5	3	8	11394

Part of the list above, bar-delimited:
Molecule | Sa RN4220 lethal | PrP 5UTR inh | ugtP null kill | Mtb hypoxia inh | Mtb hypoxia inh growth | BJeLR lethal | Autofluor counter
Cc1cc(C)c2c(n1)SCC(=O)N2CC(=O)Nc1ccc(F)cc1 | 0.3 | -11 | -15 | x | x | -13 | 5992
CN(CCNC(=O)C1CCN(S(=O)(=O)N2CCOCC2)CC1)CCc1ccccc1 | -9.2 | -10 | 5 | 6 | 3 | 1 | 2579
CC1CC(C)CN(CCCOc2ccccc2[N+](=O)[O-])C1 (centres undefined) | 0.8 | -33 | -5 | 2 | 8 | 3 | 2502
CON=C(C)CCS(=O)(=O)c1ccccc1 | 9.1 | x | 13 | -4 | -2 | x | x
COC(=O)c1c(NC(=O)C2COc3ccccc3O2)sc2c1CCN(Cc1ccccc1)C2 (centres undefined) | -5.5 | 2 | -3 | 7 | 0 | -5 | 2498
CCCNc1nc(Nc2ccc(C)cc2)nc(N2CCCC2)n1 | 1.0 | -6 | 37 | -26 | 9 | -4 | 16266*
